Screening data from PubChem BioAssay.
StopGo RLuc: FMDV 2A StopGo reporter, Renilla signal. HEK cells with a luciferase reporter of 2A StopGo recoding. Potency, µM (highest dose often 57.5 µM), for the others: top-dose signal change, negative = less light. hit rate 0.32% among 120,000. AID 1745857; active means well fitted falling curve with a large enough effect; inconclusive means small, poorly fitted or top-dose-only effect; inactive means no such curve, though single readings can be large or run the other way; note: nearly all actives have a fitted effect of over 55% in size; overnight with compound
StopGo FLuc: FMDV 2A StopGo reporter, firefly signal; AID 1745856; Potency, µM (series often up to 57.5 µM), without a hit: at the highest dose signal change, negative = less light; HEK cells with a luciferase reporter of 2A StopGo recoding; hit rate 0.23% among 120,000; active = well fitted falling curve with a large enough effect; inconclusive = small, poorly fitted or top-dose-only effect; inactive = no such curve, though single readings can be large or run the other way; note: nearly all actives have a fitted effect of over 60% in size; overnight with compound
An asterisk follows results filed as active; ? = inconclusive; & = joins results of further samples; [ ] = another dose, or the depositor's remark. % is set by controls: 0 for no effect and ±100 for the full control effect; potency is the fitted concentration of half-maximal effect.

Each structure is followed by: StopGo RLuc	StopGo FLuc
CCCn1c(Sc2ccc(C)cc2)nc2c1c(=O)[nH]c(=O)n2C
    5%	0%
Cc1cc(C)cc(Nc2nc3cc(Cl)c(Cl)cc3nc2-n2nc(C)cc2C)c1
    -13%	-6%
CCOC(=O)c1sc(CC(=O)Nc2ccc(C)cc2C)nc1C
    -9%	11%
Cc1nc(SCC(=O)Nc2oncc2-c2ccccc2)[nH]c(=O)c1C
    6%	8%
O=C(CSc1nc2c([nH]c3ccccc32)c(=O)n1-c1ccc(Cl)cc1)N1CCCC1
    13%	23%
Cn1nc(C(C)(C)C)cc1NC(=O)c1cccc(Br)c1
    -2%	48%[activator]
COc1cccc(CNCCc2ccc(Cl)cc2)c1
    -4%	9%
O=C(NC1CCCC1)c1ccc2c(=O)n(Cc3ccccc3)c(SCc3cccc([N+](=O)[O-])c3)nc2c1
    -3%	-13%
Cc1ccc(C(=O)Nc2ccc(F)cc2)cc1S(=O)(=O)N1CCCCCC1
    ?	-85%
CCS(=O)(=O)N1CCc2cc(C(=O)NCCc3ccc(OC)cc3)ccc21
    8%	0%
CN(C)CCC=C1c2ccccc2CCc2ccccc21
    -8%	-17%
Cc1nc2ccc(S(=O)(=O)N(CC(=O)N3CCCC3)Cc3ccccc3)cc2s1
    98%[activator]	5%
OC1CCN(Cc2nnc(-c3ccccc3Cl)o2)CC1
    -6%	12%
COc1ccc(N(C(=O)C(C)(C)C)C2C=CS(=O)(=O)C2)c(OC)c1 (stereo unspecified)
    -9%	-1%
Cc1nc(N2CCN(CCO)CC2)c(C#N)c2c1CCCC2
    -16%	-12%
O=C(NCC(=O)N1CCc2ccccc2C1)C1CCC(CNS(=O)(=O)c2ccc(F)cc2)CC1 (stereo unspecified)
    -10%	-9%
Cc1ccc(C)c(S(=O)(=O)c2nnn3c2nc(Nc2ccc(F)c(Cl)c2)c2sccc23)c1
    22%	-14%
COc1cc(C(=O)Nc2ccc3oc(-c4ccc(C)c(Br)c4)nc3c2)cc(OC)c1OC
    -10%	3%
Cn1c(=O)c2c(nc(Sc3ccccc3)n2Cc2ccc(Cl)cc2)n(C)c1=O
    -4%	0%
CCOc1ccccc1CNC(=O)CCc1c(C)nn(-c2ccc(N3CCOCC3)nn2)c1C
    -2%	-10%
COc1ccc(-c2nnsc2C(=O)NC2CCCC2)cc1
    2%	16%
COc1cccc(NC(=O)c2oc3ccccc3c2NC(=O)c2ccc(OC(C)C)cc2)c1
    -7%	0%
CC1=C(C(=O)Nc2ccc(C)cc2C)C(c2ccc(C(=O)O)cc2)n2nc(SCc3ccccc3)nc2N1 (stereo unspecified)
    12%	18%
Cc1cc(-c2ccccc2)n2nc(-c3ccccc3)cc2n1
    0%	6%
CS(=O)(=O)c1cccc(C(=O)Nc2ccc(-c3ccccc3)cc2)c1
    18%	57%[activator]
Cn1nc(CC(=O)Nc2ccc(Cl)cc2Cl)c2ccccc2c1=O
    3.2µM*	?
CCOc1ccc(NC(=O)C(=O)NCC(c2cccnc2)N2CCc3ccccc32)cc1 (stereo unspecified)
    ?	-21%
Cc1ccc(-c2cc(C(=O)O)c3ccc(Br)cc3n2)cc1
    3%	64%[activator]
COc1ccc(C2C(C(=O)Nc3ccc(C)cc3C)=C(C)Nc3nc4ccccc4n32)c(OC)c1 (stereo unspecified)
    -10%&-10%	-7%&-14%
CCN(CC)CCN1Cc2c(sc(C)c2C)N(C(=O)c2ccccc2)C1
    5%	148%[activator]

Each structure is followed by: StopGo RLuc	StopGo FLuc
CC1CCC(C(=O)NC(C(=O)OCC(=O)c2ccccc2)C(C)C)CC1 (stereo unspecified)
    17%	5%
CCCOc1ccc(C2c3c(oc4ccc(F)cc4c3=O)C(=O)N2CCc2ccc(OC)cc2)cc1 (stereo unspecified)
    -10%	-9%
CC(Sc1nc2ccccc2[nH]1)C(=O)NC(N)=O (stereo unspecified)
    -4%	0%
CCCCC/C=C\C/C=C\CCCCCCCC(=O)NC(C)c1ccccc1 (stereo unspecified)
    6%	-14%
CCSc1oc(-c2ccco2)nc1S(=O)(=O)c1ccc(Br)cc1
    119%[activator]	-11%
Nc1ncc(S(=O)(=O)Nc2ccccc2)cn1
    -5%	-8%
O=C(NCCc1ccccc1)c1ccc(CSc2nc3ccncc3n2Cc2ccccc2F)cc1
    -5%	67%[activator]
CCN(CC)C(=O)c1ccc(NC(=O)c2cc3ccc(OC)cc3nc2C)cc1
    4%	24%
c1coc(-c2nc(CSc3ccc4c(c3)OCCCO4)cs2)c1
    4%	0%
Cc1nnc(SCc2ccccc2)c2cc3sccc3n12
    38%[activator]	87%[activator]
COc1cc(NC(=O)Cc2c(C)c3c(OC)cc(OC)cc3oc2=O)cc(OC)c1
    -2%	4%
CCOc1ccc(CNC(=O)Cn2ccc3cc(S(=O)(=O)N4CCCCC4)ccc32)cc1
    32%[activator]	14%
Cc1ccc2c(c1)-c1nc(-c3ccccc3)cc(-c3ccccc3)c1CO2
    0%	-4%
CCOC(=O)C1CCCN(C(=O)c2ccc3c(c2)sc2nc(-c4ccc(CC)cc4)cn23)C1 (stereo unspecified)
    -8%	-7%
COc1cccc(/C=C2\Oc3cc(OC(=O)c4ccc(C(C)(C)C)cc4)ccc3C2=O)c1OC
    19%	17%
CC(NC(=O)/C(C#N)=C\c1ccccc1OC(F)F)c1ccccc1 (stereo unspecified)
    ?	-35%
COc1ccc(Cl)cc1NC(=O)CCn1c(=O)c2cccn2c2ccccc21
    -9%	-23%
CC(C)NC(=S)N/N=C/C1CC=CCC1 (stereo unspecified)
    43%[activator]	42%[activator]
COc1cccc(CNC(=O)CCCCCn2c(=O)[nH]c3cc(OC)c(OC)cc3c2=O)c1
    -11%	-8%
CCOC(=O)c1ccc(NC(=O)CC2Sc3ccccc3NC2=O)cc1 (stereo unspecified)
    142%[activator]	-2%
CCn1c(=O)n(CC)c2cc(Sc3ccccc3)c(NC(=O)c3cccc(F)c3)cc21
    2%	0%
CCC(=O)Nc1ccc(Cl)c(NC(=O)c2cccc(OC)c2)c1
    10%	16%
CCOC(=O)c1ccccc1NC(=O)C(=O)Nc1ccc2nc3n(c(=O)c2c1)CCCCC3
    8%	24%
Fc1ccc(Br)cc1/C=N/Nc1c(Cl)cc(Cl)cc1Cl
    1%	-3%
O=C(Cn1c(=O)c2cccn2c2ccccc21)Nc1cc(F)ccc1F
    16%	-14%
CCc1cccc(CC)c1NC(=O)Cn1c(=O)c(-c2cc(C)ccc2NC(C)=O)nc2ccccc21
    39%[activator]	-24%
CCC(CO)Nc1cccc2c1S(=O)(=O)N(Cc1cn(Cc3ccc(Cl)cc3)nn1)Cc1ccccc1O2 (stereo unspecified)
    175%[activator]	-7%
COc1ccc2c(C)c(CCC(=O)Nc3nc4ccccc4[nH]3)c(=O)oc2c1
    -10%	-6%
CCOc1ccc2nc(N(Cc3cccnc3)C(=O)C3CCCCC3)sc2c1
    -5%	-8%
N#Cc1ccccc1Cn1c(SCC(=O)Nc2ccc(F)cc2)nc2ccccc21
    18%	-5%

Each structure is followed by: StopGo RLuc	StopGo FLuc
Cc1cccc(-c2cc(C(=O)O)c3ccc(C)c(C)c3n2)c1
    37%[activator]	19%
CCOc1ccc(NC(=O)CC2C(=O)N(c3ccccc3)C(=O)N2CCc2ccc(OC)cc2)cc1 (stereo unspecified)
    136%[activator]	-3%
Cc1ccc(S(=O)(=O)c2nc(S(=O)(=O)c3ccc(C)cc3)c(NC(C)C)s2)cc1
    12%	-6%
N#Cc1ccc(COC(=O)c2ccc(N3CCOCC3)nc2)cc1
    16%	0%
O=C(Nc1ccccc1)C1CCN(C(=O)c2nn(-c3ccccc3)c(=O)c3ccccc23)CC1
    -14%	-15%
CCC(C)N[C@H]1CS(=O)(=O)C[C@@H]1S(=O)(=O)c1ccccc1 (stereo partly specified)
    13%	39%[activator]
CCC(=O)N1CCc2cc(CNS(=O)(=O)c3cccs3)ccc21
    9%	83%[activator]
N#Cc1c2n(c(=O)n(CC(O)COc3ccccc3F)c1=O)CCC2 (stereo unspecified)
    10%	17%
Cc1cc(C(c2ccc(Cl)cc2)N2CCN(C)CC2)c(NC(=O)c2ccco2)s1 (stereo unspecified)
    -15%	28%
Cc1c(O)ccc2c(CN3CCC(O)CC3)cc(=O)oc12
    1%	4%
Cc1nc(SCC(=O)Nc2ccc(S(=O)(=O)N3CCCCC3)cc2)n(C2CCCC2)c1C
    23%	-11%
CCOCCCNC(=O)C(c1ccc(Cl)cc1)N(Cc1ccc2c(c1)OCO2)C(=O)c1ccccc1O (stereo unspecified)
    277%[activator]	-9%
c1ccc(CSc2ncn(-c3nc(N4CCOCC4)nc(N4CCOCC4)n3)n2)cc1
    -11%	-12%
FC(F)(F)c1cccc(C=C(c2nc3ccccc3s2)c2nc3ccccc3s2)c1
    ?	?
CCOc1nc2ccccc2nc1N1CCC(C(=O)N2CCCC2)CC1
    3%	0%
COc1ccc(/C=C/C(=O)c2cccs2)cc1O
    33%[activator]	0%
COc1cccc(-c2noc(COc3cccc(C)c3C)n2)c1
    -4%	40%[activator]
Cc1cc(C2CCCN2Cc2coc(-c3ccc(F)cc3)n2)on1 (stereo unspecified)
    3%	41%[activator]
Cc1ccc(NC(=O)CSCc2cc(=O)n3oc(C)cc3n2)cc1
    -10%	-1%
CCC(=O)N1c2ccccc2CC1C(=O)NCc1ccc(N(C)C)cc1 (stereo unspecified)
    -13%	-2%
CCOc1ccc(NC(=O)Cn2nc(Cc3cccnc3)c3ccccc3c2=O)cc1
    -17%	-17%
Cn1c(N)c(C(=O)c2cc(-c3ccncc3)nc3ccccc23)c(=O)n(C)c1=O
    5%	50%[activator]
O=C(CSC1=NC2(CCCC2)Nc2ccccc21)Nc1ccc2c(c1)OCCO2
    -19%	28%
Nc1nccnc1C(=O)NCCNc1ncccn1
    11%	0%
O=C(NC1CC1)c1cc(SCC(=O)N2CCCCC2)nc2ccccc12
    5%	3%
COc1cccc(CNC(=O)c2cc3c(s2)-c2ccccc2OC3)c1
    19%	58%[activator]
Fc1ccc(-c2ccc(CNCc3ccccc3)o2)cc1
    2%	136%[activator]
CS(=O)(=O)c1ccc([C@@H](O)[C@@H](CF)NC(=O)C(Cl)Cl)cc1
    -1%	-8%[11.5 µM]
CCOC(=O)c1cccc(NC(=O)CSc2ncc3c(n2)-c2ccc(Cl)cc2N(Cc2ccccc2)S3(=O)=O)c1
    0%	102%[activator]
O=C(NCCCN1CCCC1)NCc1ccccc1
    -5%[1.06 µM]	-2%

Some of the entries so far, in CSV form:
canonical_smiles,StopGo RLuc,StopGo FLuc
O=C(Nc1ccccc1)C1CCN(C(=O)c2nn(-c3ccccc3)c(=O)c3ccccc23)CC1,-14%,-15%
CCC(C)N[C@H]1CS(=O)(=O)C[C@@H]1S(=O)(=O)c1ccccc1 (stereo partly specified),13%,39%[activator]
CCC(=O)N1CCc2cc(CNS(=O)(=O)c3cccs3)ccc21,9%,83%[activator]
N#Cc1c2n(c(=O)n(CC(O)COc3ccccc3F)c1=O)CCC2 (stereo unspecified),10%,17%
Cc1cc(C(c2ccc(Cl)cc2)N2CCN(C)CC2)c(NC(=O)c2ccco2)s1 (stereo unspecified),-15%,28%

(list continues)
Each structure is followed by: StopGo RLuc	StopGo FLuc
CN(C)C(=O)COC(=O)CCc1c[nH]c2ccccc12
    -12%	-7%
O=C(NCC(c1cccnc1)N1CCc2ccccc21)c1cccc(F)c1 (stereo unspecified)
    15%	-9%
COc1ccc(-c2cc(C)no2)cc1S(=O)(=O)CCC(=O)Nc1cccc(Cl)c1
    0%	-13%
COc1cc(Br)c(CC(=O)Oc2c(C)cccc2C)cc1OC
    ?	?
CCCCN(C)C(=O)C1CCC(CNS(=O)(=O)c2ccc3c(c2)CC(C)N3C(C)=O)CC1 (stereo unspecified)
    -9%	-10%
CCc1nn2c(=O)cc(COC(=O)C3CCCCC3)nc2s1
    -5%	-5%
CC(CC(=O)C(C#N)C(=O)Nc1ccccc1F)c1ccc(F)cc1 (stereo unspecified)
    0%	20%
COC(=O)c1c(NC(=O)c2cc3ccccc3o2)sc(C)c1C
    11%	5%
CCc1cccc(C)c1NC(=O)Cc1nn(C)c(=O)c2ccccc12
    ?	?
CC(=O)c1cccc(OCc2cccc(C(N)=O)c2)c1
    42%	149%[activator]
CCN(CC)S(=O)(=O)c1ccc(C(C)NCc2cccs2)cc1 (stereo unspecified)
    3%	8%
CCCCCOc1ccc(NC(=O)Cn2c(-c3cncs3)nc3ccccc32)cc1
    -2%	20%
COc1ccc(CNC(=O)c2cc3c(=O)n(Cc4ccco4)ccc3nc2C)c(OC)c1
    -5%	-16%
CCC(C(=O)Nc1cccc(Cl)c1C)n1nc(C)c2sc3ccccc3c2c1=O (stereo unspecified)
    125%[activator]	0%
Cc1ccc(C(=O)Nc2sc3c(c2C(=O)NCc2ccco2)CCC(C(C)(C)C)C3)cc1 (stereo unspecified)
    -6%	-9%
COc1cc(-c2nc(Cn3nnc(C(=O)Nc4ccc(F)cc4)c3N)c(C)o2)cc(OC)c1OC
    83%[activator]	0%
CC(C)c1cccc(C(C)C)c1-n1ccnc1
    ?	2%
COc1ccc(C(=O)C(C)OC(=O)C23CC4CC(CC(Br)(C4)C2)C3)c(OC)c1 (stereo unspecified)
    74%[activator]	17%
C[N+]1(CCCCCCCCCCCCCO)CCCC1
    20µM*	?

Only part of the results is shown, so the mix of outcomes need not match the whole.
